Screens: PubChem, Broad Institute
AF4-AF9 inh: MLL-AF4/AF9 protein interaction inhibition | inhibition, % at 10 µM | actives 0.47% (n = 350,000) | P42568 | AlphaScreen, biotin-AF4 peptide binding to FLAG-AF9 | AID 651704;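 active = every replicate reaching a set inhibition limit, whatever the replicate mean, cut at about 25% in these data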;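 note: 0% = plate neutral control median and 100% = total signal loss; the record names both 10 and 1 µM as test concentration; the first replicate is given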
Target sequence (P42568 whole entry, looked up): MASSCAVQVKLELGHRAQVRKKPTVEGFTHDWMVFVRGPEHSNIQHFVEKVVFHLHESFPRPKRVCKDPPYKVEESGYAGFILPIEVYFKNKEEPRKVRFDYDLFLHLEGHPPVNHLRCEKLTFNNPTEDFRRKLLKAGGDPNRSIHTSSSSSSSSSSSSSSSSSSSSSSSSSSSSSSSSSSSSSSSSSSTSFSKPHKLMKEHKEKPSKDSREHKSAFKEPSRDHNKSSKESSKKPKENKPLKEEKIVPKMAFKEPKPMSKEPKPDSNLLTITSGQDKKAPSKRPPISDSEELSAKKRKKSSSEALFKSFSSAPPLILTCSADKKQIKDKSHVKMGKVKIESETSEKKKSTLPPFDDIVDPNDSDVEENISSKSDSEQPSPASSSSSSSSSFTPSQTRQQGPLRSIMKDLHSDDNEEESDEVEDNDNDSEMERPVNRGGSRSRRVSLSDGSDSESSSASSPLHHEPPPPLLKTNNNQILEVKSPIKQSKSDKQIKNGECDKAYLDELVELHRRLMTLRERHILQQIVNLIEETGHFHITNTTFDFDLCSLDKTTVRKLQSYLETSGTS
Ecoli rRNA inh: inhibitors of bacterial rRNA selective over humanized ribosomes; E. coli WT GFP vs humanized-ribosome RFP mutants, fluorescence, 24 h; active compounds read low; DMSO median 0, no signal -100; actives 1.6% (n = 350,000); GFP signal change (wild-type ribosome), % (concentration not given with the values); AID 720706;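 active = significant combined selectivity score with lowered wild-type GFP, culture density cut under 30%, mutant RFP and density less affected; inactive = any of these conditions unmet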; note: one replicate is shown; some compounds called inactive have numbers as strong as hits
Ecoli rRNA inh OD600: second read-out of Ecoli rRNA inh, no call of its own (marks repeat the call); OD600 change, %; measured here: OD600 growth;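 optical density of the mix in the first replicate; 0 = DMSO median and -100 = no signal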
Ecoli rRNA inh RFP: second read-out of Ecoli rRNA inh, no call of its own (marks repeat the call); RFP signal change, %; measured here: RFP humanized mutant strains;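 first replicate; 0 = DMSO median and -100 = no signal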
An asterisk follows results filed as active; & = joins results of further samples.

SMILES	AF4-AF9 inh	Ecoli rRNA inh	Ecoli rRNA inh OD600	Ecoli rRNA inh RFP
CC(C)NC(=O)N(C)C[C@@H]1Oc2ccc(NC(=O)C3CCCCC3)cc2CC(=O)N([C@H](C)CO)C[C@@H]1C	-4.0	1	1	-3.6
C[C@@H]1CCCCO[C@@H](CN(C)S(=O)(=O)c2ccc(F)cc2)[C@@H](C)CN([C@@H](C)CO)C(=O)c2cc(NC(=O)CCC(F)(F)F)ccc2O1	-11	8	5	-1.4
CO[C@H]1CN(C)C(=O)c2ccc(NS(C)(=O)=O)cc2OC[C@@H](C)N(Cc2nccs2)C[C@H]1C	-2.3	-1	2	0.5
C[C@H]1CCCCO[C@@H](CN(C)C(=O)Nc2cccc3ccccc23)[C@@H](C)CN([C@@H](C)CO)C(=O)c2cc(NC(=O)c3ccncc3)ccc2O1	0.6	3	-6	12
O=C(C[C@@H]1CC[C@H]2[C@@H](COC[C@H](O)CN2C(=O)c2ccccn2)O1)NC1CCC1	-2.3	4	2	-4.3
O=C(C[C@@H]1CC[C@@H](NS(=O)(=O)c2cccc(F)c2)[C@H](CO)O1)N1CCCCC1	-1.1	-1	1	3.0
CNC[C@H]1Oc2c(NS(=O)(=O)c3ccccc3)cccc2C(=O)N([C@@H](C)CO)C[C@H]1C	-0.9	3	2	0.4
CNC(=O)C[C@@H]1CC[C@@H]2[C@H](COc3ccc(NC(=O)c4cc(F)cc(F)c4)cc3C(=O)N2C)O1	-0.3	-1	7	1.4
Cc1ccc(S(=O)(=O)N(C)C[C@H]2Oc3cc(C4=CCCC4)ccc3S(=O)(=O)N([C@H](C)CO)C[C@@H]2C)cc1	0.6	-3	-2	-1.5
O=C(Nc1cccc2ccccc12)c1csc([C@@H]2O[C@H](CO)[C@@H](O)[C@H]2O)n1	-0.1	-8	-10	2.8
Cc1noc(C)c1NC(=O)N(C)C[C@H]1Oc2c(NC(=O)c3ccc(-c4nccs4)cc3)cccc2C(=O)N([C@@H](C)CO)C[C@H]1C	-2.4	2	0	0.1
CCCCCCSc1cccc(-c2nc3ccc(Cl)cn3c2NCCCC)c1	5.4&4.2	-9&-4	-13&-1	7.7&0.1
C[C@@H]1CN([C@H](C)CO)C(=O)c2cc(C#CC3CCCCC3)cnc2O[C@H]1CN(C)Cc1ccncc1	13	-2	-17	14
COc1ccccc1Cc1c(-c2ccc(C#N)cc2)nc2c(C)cc(Br)cn12	-6.9	5	6	17
Nc1ncnc2c1ncn2C1OC(CO)C2OC21 (configuration not stated)	-7.2	2	14	1.6
COc1cccc(-c2cn(CC[C@@H]3CC[C@H](NS(=O)(=O)c4ccccc4Cl)[C@H](CO)O3)nn2)c1	0.3	-18	-20	-1.6
Cc1ccc(S(=O)(=O)Nc2ccc3c(c2)C(=O)N([C@H](C)CO)C[C@H](C)[C@H](CN(C)C(=O)NC2CCCCC2)OCCCC[C@@H](C)O3)cc1	-0.7	1	-4	-1.3
NCC[C@@H]1CC[C@H](NC(=O)C2CCCC2)[C@H](CO)O1	-0.8	-2	-3	-1.9
N#C[C@@H]1[C@@H](c2ccc(C#CC3CCCC3)cc2)[C@H](CO)N1C(=O)Nc1ccc(F)cc1	2.3	-12	-22	10
CO[C@@H]1CN(C)C(=O)c2ccc(NC(C)=O)cc2OC[C@@H](C)N(Cc2ccccc2F)C[C@H]1C	1.4	-6	-11	1.2
COc1ccc(CN(C)C[C@H]2Oc3ccc(NS(C)(=O)=O)cc3CC(=O)N([C@H](C)CO)C[C@H]2C)cc1	-1.1	1	5	-2.2
C[C@@H]1CN([C@@H](C)CO)C(=O)c2cc(C3=CCCCC3)cnc2O[C@H]1CN(C)C(=O)Nc1cccc(F)c1	-0.7&0.9&0.7	2&-5	-2&-2	-4.1&-1.1
CNC(=O)C[C@H]1CC[C@@H]2[C@H](COC[C@@H](O)CN2Cc2ccccc2F)O1	-1.6	4	1	-1.9
COCC#Cc1cnc2c(c1)C(=O)N([C@H](C)CO)C[C@@H](C)[C@@H](CN(C)C(=O)C1CCC1)O2	-9.8	10	11	-1.3
COc1ccc(-c2ccc3c(c2)O[C@@H](CN(C)C)[C@@H](C)CN([C@H](C)CO)S3(=O)=O)cc1	-1.9	6	7	1.2
(further entries)
SMILES	AF4-AF9 inh	Ecoli rRNA inh	Ecoli rRNA inh OD600	Ecoli rRNA inh RFP
CC(=O)Nc1cccc(-c2ccnc3c2CC(C)(C(=O)NCc2cccc(Cl)c2)O3)c1 (configuration not stated)	-2.2	0	-9	2.0
C[C@@H]1CN([C@H](C)CO)C(=O)c2cc(NC(=O)Nc3ccc(F)cc3)ccc2O[C@H]1CN(C)C(=O)Nc1ccc(F)cc1	-1.2	2	1	-1.4
C/C=C/c1ccc([C@@H]2[C@@H](CO)N3C(=O)CN(C(=O)Nc4ccccc4F)C[C@@H]23)cc1	-1.4	-1	3	1.0
COCC#Cc1cnc2c(c1)C(=O)N([C@H](C)CO)C[C@H](C)[C@@H](CN(C)C(=O)Cc1ccccc1)O2	-2.6	-3	-11	2.1
C[C@@H]1CN([C@H](C)CO)C(=O)Cc2cc(NC(=O)Cn3cnnn3)ccc2O[C@@H]1CN(C)Cc1ccccc1	1.4	3	6	0.6
Cc1noc(C)c1NC(=O)N(C)C[C@H]1Oc2c(NC(=O)c3ccncc3)cccc2C(=O)N([C@@H](C)CO)C[C@H]1C	-0.4	2	-3	-1.8
CCCNC(=O)N(C)C[C@H]1Oc2ncc(C#C[C@@H](C)O)cc2C(=O)N([C@H](C)CO)C[C@@H]1C	-1.8	6	1	2.3
O=C(Nc1nccs1)[C@H]1[C@H](CO)[C@H]2Cn3c(cccc3=O)[C@H]2N1C(=O)C1CCC1	1.3	3	11	1.7
C[C@H]1CN([C@@H](C)CO)C(=O)c2cc(NC(=O)Nc3ccccc3)ccc2O[C@@H]1CN(C)Cc1ccccc1	-1.8	1	7	-0.2
COC(=O)[C@@H]1[C@@H](CO)[C@@H]2Cn3c(ccc(-c4ccccc4)c3=O)[C@@H]2N1C(=O)CC1CC1	1.6	0	5	-1.5
CO[C@H]1CN(C)C(=O)c2cc(NC(=O)Nc3cccc(Cl)c3)ccc2OC[C@H](C)NC[C@@H]1C	3.5	-2&-4	-7&-5	3.9&3.1
CC1CN(S(=O)(=O)c2cccc(C(=O)NCC(c3cccs3)N3CCOCC3)c2)CC(C)O1 (configuration not stated)	8.3	4	4	0.7
CCC(=O)N(C)C[C@H]1Oc2ncc(C#Cc3cccnc3)cc2C(=O)N([C@H](C)CO)C[C@@H]1C	-1.8	4	8	-0.3
C[C@@H](O)C#Cc1cnc2c(c1)C(=O)N([C@@H](C)CO)C[C@H](C)[C@@H](CN(C)C(=O)Nc1ccc(C(F)(F)F)cc1)O2	0.3	4	2	-0.2
O=C(C[C@H]1C=C[C@@H](NS(=O)(=O)c2ccccc2)[C@H](CO)O1)NCc1ccc(Cl)c(Cl)c1	-0.2	-7	-4	1.2
Cc1ccc(S(=O)(=O)N2C[C@H](O)COC[C@@H]3O[C@H](CC(=O)N[C@@H]4CCN(Cc5ccccc5)C4)CC[C@H]32)cc1	0.9	0	11	-2.1
CO[C@H]1CN(C)C(=O)c2ccc(NC(=O)C3CCC3)cc2OC[C@H](C)N(Cc2cccnc2)C[C@H]1C	2.0	-1	-2	-0.3
C[C@H]1CN([C@@H](C)CO)C(=O)Cc2cc(NC(=O)Nc3ccc(F)cc3)ccc2O[C@@H]1CN(C)C(=O)Nc1ccccc1	1.8	4	-3	0.7
CCCC(=O)Nc1ccc2c(c1)OC[C@H](C)N(C(=O)c1cnccn1)C[C@H](C)[C@H](OC)CN(C)C2=O	-0.8	0	-5	-0.1
COC(=O)[C@]12CCCCC=C1N(Cc1ccco1)C(=O)[C@H](CC(=O)NCCC(C)C)C2	1.3	4	8	4.7
CC(=O)N(C)C[C@H]1[C@H](c2ccc(C3=CCCCC3)cc2)[C@H](CO)N1CC1CC1	10	1	3	4.8
COCCNC(=O)C[C@H]1C=C[C@@H](NS(=O)(=O)c2ccc(C)cc2)[C@@H](CO)O1	1.1	4	0	-1.1
C[C@@H]1CN([C@@H](C)CO)C(=O)c2cc(C3=CCCCC3)cnc2O[C@H]1CN(C)Cc1ccncc1	0.7	1	6	-0.6
O=C(C[C@@H]1CC[C@H]2[C@@H](COC[C@H](O)CN2C(=O)c2ccccc2F)O1)N1CCN(c2ccccc2)CC1	0.3	1	12	-1.1
O=C(N[C@H]1CC[C@H](CCn2cc(C3(O)CCCC3)nn2)O[C@@H]1CO)C1CCOCC1	0.6	3	-2	-0.8
(next part)
SMILES	AF4-AF9 inh	Ecoli rRNA inh	Ecoli rRNA inh OD600	Ecoli rRNA inh RFP
C[C@H](CO)N1C[C@H](C)[C@@H](CN(C)Cc2ccc(C(=O)O)cc2)OCCCC[C@H](C)Oc2ccc(NC(=O)Nc3ccc(F)cc3)cc2C1=O	0.0	2	6	-3.2
O=C(Cc1ccccn1)NCC[C@@H]1CC[C@H](NC(=O)Nc2ccc(Cl)cc2)[C@H](CO)O1	-23	-3	-8	2.0
Cn1cnc(CCNC(=O)C[C@H]2CC[C@@H]3[C@H](COC[C@@H](O)CN3C(=O)C3CC3)O2)c1	-0.3	2	-1	2.0
C[C@@H]1CN([C@@H](C)CO)C(=O)c2cc(/C=C/c3ccccc3)cnc2O[C@H]1CN(C)C(=O)C1CCOCC1	-5.4	-1	6	-0.4
CS(=O)(=O)N1CC2(C1)[C@@H](c1ccccc1)[C@@H](CO)N2C(=O)c1ccccc1	-3.5	3	13	-2.2
COc1ccccc1COc1cccn2c(N(C)C(=O)CCC3CCCC3)c(C)nc12	3.7	-16	-28	-0.2
C[C@H]1CN([C@@H](C)CO)C(=O)c2cc(NS(=O)(=O)c3cn(C)cn3)ccc2O[C@H]1CN(C)C(=O)Nc1ccc(C(F)(F)F)cc1	-1.4	1	1	-0.5
C/C=C/c1ccc2c(c1)O[C@H](CN(C)C(C)=O)[C@@H](C)CN([C@@H](C)CO)S2(=O)=O	-1.4	-1	4	-4.2

Ordered by number of heavy atoms (smallest number first): four of the compounds above.
SMILES	AF4-AF9 inh	Ecoli rRNA inh	Ecoli rRNA inh OD600	Ecoli rRNA inh RFP
CS(=O)(=O)N1CC2(C1)[C@@H](c1ccccc1)[C@@H](CO)N2C(=O)c1ccccc1	-3.5	3	13	-2.2
C/C=C/c1ccc2c(c1)O[C@H](CN(C)C(C)=O)[C@@H](C)CN([C@@H](C)CO)S2(=O)=O	-1.4	-1	4	-4.2
COc1ccccc1COc1cccn2c(N(C)C(=O)CCC3CCCC3)c(C)nc12	3.7	-16	-28	-0.2
C[C@H]1CN([C@@H](C)CO)C(=O)c2cc(NS(=O)(=O)c3cn(C)cn3)ccc2O[C@H]1CN(C)C(=O)Nc1ccc(C(F)(F)F)cc1	-1.4	1	1	-0.5

As entered above.
In Ecoli rRNA inh RFP, CC(C)NC(=O)N(C)C[C@@H]1Oc2ccc(NC(=O)C3CCCCC3)cc2CC(=O)N([C@H](C)CO)C[C@@H]1C reads -3.6
In Ecoli rRNA inh OD600, N#C[C@@H]1[C@@H](c2ccc(C#CC3CCCC3)cc2)[C@H](CO)N1C(=O)Nc1ccc(F)cc1 reads -22
In Ecoli rRNA inh RFP, Cc1noc(C)c1NC(=O)N(C)C[C@H]1Oc2c(NC(=O)c3ccc(-c4nccs4)cc3)cccc2C(=O)N([C@@H](C)CO)C[C@H]1C reads 0.1
In Ecoli rRNA inh OD600, COC(=O)[C@@H]1[C@@H](CO)[C@@H]2Cn3c(ccc(-c4ccccc4)c3=O)[C@@H]2N1C(=O)CC1CC1 reads 5
In Ecoli rRNA inh OD600, COc1ccc(-c2ccc3c(c2)O[C@@H](CN(C)C)[C@@H](C)CN([C@H](C)CO)S3(=O)=O)cc1 reads 7

Only part of the results is shown; the hit share may differ from the screen's.
